# From PubChem BioAssay
# HSV augment: enhancers of HSV replication in host cells, fold increase, host cell viability; HSV replication augmentation in cells; maximum fold increase; 220,000 compounds, 0.005% hits;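 active = peak rise of 1.5-fold or more in the series; inconclusive = self-fluorescent or not available for retest; tested in PC3 cells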;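 note: first round at 10 µM; read as green reporter fluorescence; hits show the peak of a series up to 25 µM; 1 = signal of infected wells without compound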
# INS promoter inh: inhibitors of insulin promoter-driven GFP, primary screen, imaging, TRM-6 cells (human fetal islet line), eGFP reporter, cell count; AID 1273, 2008; inhibition, % at 2 µM; reporter expression induced with tamoxifen; 130,000 compounds, 0.9% hits;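 active = inhibition above the mean plus 3 SD, with well images judged a real hit on visual review, cut at about 60% in these data, passing the limit was not always enough; inconclusive = inhibition over the cutoff but images rejected on review; inactive = inhibition not above the cutoff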
# GALR2 ag: GALR2 receptor agonists, primary screen, cell-based. activation, %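 (tested at 5 µM)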. GALR2-expressing cells, agonist activation read-out. AID 803, 2007. Galanin receptor type 2 (Homo sapiens), O43603. 140,000 compounds, 0.48% hits;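 active = above mean plus 3 SD of all compounds, about 5% in these data, not always enough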;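 note: 0% = vehicle buffer wells and 100% = reference agonist at full effect; tested in CHO reporter cells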
# Target sequence (O43603 whole entry, looked up): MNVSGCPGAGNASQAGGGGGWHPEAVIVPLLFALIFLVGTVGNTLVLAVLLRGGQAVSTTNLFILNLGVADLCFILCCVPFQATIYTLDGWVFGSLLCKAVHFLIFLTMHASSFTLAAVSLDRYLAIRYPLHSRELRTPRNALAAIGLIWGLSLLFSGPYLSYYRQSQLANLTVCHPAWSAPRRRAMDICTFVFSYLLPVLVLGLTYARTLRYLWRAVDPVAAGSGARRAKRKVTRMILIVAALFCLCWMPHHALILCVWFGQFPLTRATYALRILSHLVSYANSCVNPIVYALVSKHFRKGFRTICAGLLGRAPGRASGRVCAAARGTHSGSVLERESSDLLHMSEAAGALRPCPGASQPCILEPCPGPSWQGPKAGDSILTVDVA
# RGS16-Gao: modulators of RGS16 binding to Galphao, primary screen, biochemical, human proteins, multiplexed bead flow cytometry. Regulator of G-protein signaling 16 (Homo sapiens) + Guanine nucleotide-binding protein …. bead-based flow cytometry RGS16-Galphao binding, fluorescence; actives lie on both sides. binding response (% of control), % at 10 µM. 220,000 compounds, 0.38% hits. AID 1441, 2008;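 active = below 25% or above 175%, edge rows of some plates excepted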;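 note: Galphao activated by GDP with aluminum fluoride before binding; 100% = wells without compound and 0% = beads without RGS; some results beyond the cut were filed as inactive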
# Target sequence (O15492 whole entry, looked up): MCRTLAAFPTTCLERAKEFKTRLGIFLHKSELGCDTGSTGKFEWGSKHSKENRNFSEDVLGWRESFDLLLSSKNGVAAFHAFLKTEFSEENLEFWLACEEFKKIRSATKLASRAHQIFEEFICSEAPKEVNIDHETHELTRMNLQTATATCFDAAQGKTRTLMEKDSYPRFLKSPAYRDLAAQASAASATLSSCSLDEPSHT
# Target sequence (P09471 whole entry, looked up): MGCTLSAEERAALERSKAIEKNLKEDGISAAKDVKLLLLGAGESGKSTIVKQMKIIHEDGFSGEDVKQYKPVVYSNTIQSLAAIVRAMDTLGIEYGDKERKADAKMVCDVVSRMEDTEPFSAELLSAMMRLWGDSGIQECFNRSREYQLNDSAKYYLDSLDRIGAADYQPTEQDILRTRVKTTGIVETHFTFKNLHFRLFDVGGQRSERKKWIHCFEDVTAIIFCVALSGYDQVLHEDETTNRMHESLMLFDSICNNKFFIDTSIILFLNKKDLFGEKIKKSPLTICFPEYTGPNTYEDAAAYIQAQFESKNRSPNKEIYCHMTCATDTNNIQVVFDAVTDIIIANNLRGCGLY
# PKD1 kinase inh: inhibitors of human PKD1 kinase, biochemical, fluorescence polarization. Serine/threonine-protein kinase D1 (Homo sapiens), Q15139. 200,000 compounds, 0.056% hits. inhibition, %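 (about 10 µM by stock and volumes)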. PKD1 kinase fluorescence polarization assay;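 active = inhibition of 50% or more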;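 note: controls were vehicle for no effect and a reference inhibitor for full effect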
# INS promoter inh cell count: second read-out of INS promoter inh, no call of its own (marks repeat the call); normalized cell count, %; measured here: cell count, toxicity; reference of the scale not given here;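 cells exposed to compound for 48 h; stained nuclei by imaging scaled within each plate; lower means fewer cells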
# HSV augment primary fold: also measured in HSV augment; calls as there; fold increase; compound at 10 µM; measured here: primary screen fold increase 10 uM; tested in PC3 cells;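 GFP signal in the first replicate; 1 = infected wells without compound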
# Numbers without * were called inactive; i = inactive; ? = inconclusive; . = not tested or not shown.
SMILES,HSV augment,HSV augment primary fold,INS promoter inh,INS promoter inh cell count,GALR2 ag,RGS16-Gao,PKD1 kinase inh
NC1=NC(=O)/C(=C/c2cn(CCC(=O)O)nc2-c2ccc(F)cc2)S1,i,1,-4,131,1.0,97,7
CC1=[N+]([O-])C(C)(C)C(c2ccc(Br)cc2)=[N+]1[O-],i,1,22,141,-1.6,96,-12
COC(=O)C1SCC2C(=O)N(Cc3ccc(Cl)cc3)CC(=O)N21 (configuration not stated),i,1.1,-9,75,.,84,-5
CCS(=O)(=O)Nc1cc(OC)c(OC)cc1Cc1nccc2cc(OC)c(OC)cc12,i,0.9,.,.,.,94,.
O=C(COc1ccc(S(=O)(=O)N2CCCCC2)cc1)N1CCCCCC1,i,1,21,145,-4.2,101,-6
Cc1ccc(-c2nnn(CC(=O)NCCc3ccc4c(c3)OCO4)n2)o1,i,0.99,18,85,-4.5,94,-7
Cc1csc(NC(=O)c2cc(-c3ccncc3)nc3ccccc23)n1,i,1,.,.,.,102,-6
O=C(NCc1cccnc1)C1CCC(CNS(=O)(=O)c2ccc(Cl)cc2)CC1 (configuration not stated),i,1,36,122,.,94,1
Cc1ccc2cc(CN(CC3CCCO3)S(=O)(=O)c3c(C)ccc4nsnc34)c(=O)[nH]c2c1 (configuration not stated),i,0.72,-18,151,-0.8,104,-10
COc1ccc(/C=C/c2nc3cc(-c4ccccc4)ccc3o2)cc1O,i,0.96,-2,111,2.4,102,4
CCCn1c(=O)[nH]c(=O)c2c1nc(-c1ccc(OC(F)(F)C(F)C(F)(F)F)cc1)n2CCOC (configuration not stated),i,0.88,-3,71,1.9,105,-5
COc1ccc(Br)cc1S(=O)(=O)N1CC(C)OC(C)C1 (configuration not stated),i,0.76,-48,118,-1.7,100,2
COc1ccccc1NC(=O)Nc1ccnn1C1CCCCC1,i,1,4,97,-1.5,102,2
O=C(CNC(=O)c1ccc(Br)o1)NCc1ccc2c(c1)OCO2,i,1,44,92,-1.7,101,-10
CC(=O)c1c(C)nc2ccccn12,.,.,-10,70,-1.1,105,0
CCOC(=O)C1=C(c2ccccc2)NC(=S)NC1c1ccc(Cl)c([N+](=O)[O-])c1 (configuration not stated),i,0.92,5,52,-1.6,47,-6
Cc1ccc2nc(-c3ccc(NC(=O)CCN4C(=O)c5ccccc5C4=O)cc3)sc2c1,i,1.1,.,.,1.4,97,4
O=C(NCCOc1ccccc1Cl)c1cc(F)c(F)cc1Cl,i,0.86,55,64,-3.2,99,0
O=C(C(=O)N1CC=C(c2ccccc2)CC1)c1c[nH]c2ccccc12,?,.,.,.,-0.2,100,2
CC1CCCCC1NC(=O)COC(=O)c1ccc2ccccc2n1 (configuration not stated),i,0.94,50,105,.,107,-2
O=c1c2ccccc2nc(-c2ccc(F)cc2)n1NCc1ccccc1O,.,.,-86,178,.,100,-5
O=C(COc1cc(Cl)c(Cl)cc1Cl)NC(=O)Nc1ccc2c(c1)OCCO2,i,0.87,4,85,0.8,103,-6
CN(c1ccccc1)S(=O)(=O)c1cccc(C(=O)Nc2nn[nH]n2)c1,i,0.98,.,.,.,92,.
Cc1cccn2c(N)c(-c3ccccc3)nc12,i,0.86,.,.,-1.6,137,-6
CCOC(=O)C1C(=O)C=C(c2ccc(C)cc2)CC1c1cccc([N+](=O)[O-])c1 (configuration not stated),i,0.92,.,.,0.6,100,0

# Next part.
SMILES,HSV augment,HSV augment primary fold,INS promoter inh,INS promoter inh cell count,GALR2 ag,RGS16-Gao,PKD1 kinase inh
CCCc1nc2ccccc2c(=O)n1-c1ccc(C(=O)OCC)cc1,i,1,52,25,.,124,-4
O=S(=O)(Nc1ccc(-c2nc3cccnc3s2)cc1)c1cccs1,i,1.1,.,.,2.9,79,-2
CCC(=O)NNc1cccc(Cl)n1,.,.,.,.,-3.1,136,-9
CCCCSc1nnc(NC(=O)CCc2ccccc2)s1,i,0.88,17,95,-1.8,101,1
CCOC(=O)C(NC(=O)c1ccc(OC)cc1)(Nc1cc(C)on1)C(F)(F)F (configuration not stated),i,1,-30,141,-1.3,82,2
CCN1CCN(c2nc(Nc3ccc(OC)cc3)nc(N)c2[N+](=O)[O-])CC1,i,0.69,.,.,.,110,.
CCCCNc1cc(=O)n(C)c(=O)[nH]1,i,1.2,.,.,-1.1,103,-11
Cc1[nH]n(C(N)=S)c(=O)c1N=Nc1cc(-c2ccc(Br)cc2)[nH]n1,i,1,.,.,.,108,-8
COc1ccccc1C(=O)NNC(=O)c1cccc([N+](=O)[O-])c1,i,0.95,.,.,.,111,-5
FC(F)Oc1ccc(NC(=S)NCC2COc3ccccc3O2)cc1 (configuration not stated),i,1.1,11,88,-1.2,106,4
Nc1ccc(S(=O)(=O)Nc2ccccn2)cc1,i,0.9,-33,40,-0.9,104,-3
CCc1c(C(=O)O)[nH]c2ccc(Br)cc12,i,1,.,.,-1.8,101,-2
O=C(CSc1nc(O)c(-c2ccccc2)c(=O)[nH]1)N1CCOCC1,i,0.82,.,.,.,113,2
Cc1ccc(CSC(Nc2ccc(F)cc2)=C(C#N)C#N)cc1,i,0.65,27,61,-0.4,83,-11
Cn1cc(S(=O)(=O)N2CCN(c3cccc(C(F)(F)F)c3)CC2)c(=O)n(C)c1=O,i,0.91,.,.,-2.3,66,-8
COc1ccc2c(c1)O[C@@H](c1cccc(C(F)(F)F)c1)[C@H](OC(=O)Nc1ccc(OC(F)F)cc1)C2=O,i,0.94,35,97,-1.6,101,-5
CCCCCc1c(O)nc(SCCN(CC)CC)[nH]c1=O,i,0.97,22,147,.,103,-4
CCOc1ccc(S(=O)(=O)NCCC2=CCCCC2)c2ccccc12,i,1.1,12,69,-4.2,99,-5
COc1ccc(CCC(=O)Nc2nc3ccccc3[nH]2)cc1OC,i,1,25,106,-2.8,99,-7
CCN1CCN(CCC(=O)Nc2ccc(Br)cc2)CC1,i,1,-48,82,.,102,-3
O=C(CSc1nn(-c2ccc(F)cc2)c(=S)s1)NC1CCS(=O)(=O)C1 (configuration not stated),i,0.97,-6,104,.,99,1
CSCCC(NC(=O)c1ccccc1)C(=O)NCc1ccco1 (configuration not stated),.,.,-33,105,-1.2,98,-1
CCCn1c(N)c(NCCN2CCOCC2)c(=O)n(CC(=O)NCc2ccccc2)c1=O,i,1,-36,27,.,109,3
CCCc1[nH]nc2c1C(c1ccccc1OC)C(C#N)=C(N)O2 (configuration not stated),i,1.1,-6,105,-0.1,94,3
COc1ccc(NS(=O)(=O)c2cc(NC(=O)c3ccc(C)s3)ccc2N2CCOCC2)cc1,i,0.85,.,.,.,95,.

# (more compounds)
SMILES,HSV augment,HSV augment primary fold,INS promoter inh,INS promoter inh cell count,GALR2 ag,RGS16-Gao,PKD1 kinase inh
c1ccn2c(c1)nc1c2nc2ccccn21,i,0.88,21,89,0.0,106,1
O=C1OCC2=C1C(c1ccccc1)CC(=O)N2c1cccc(F)c1 (configuration not stated),i,0.97,18,130,.,102,0
O=C(Nc1cccnc1)c1ccc(-c2ccccc2)cc1,i,0.91,-75,159,.,114,-2
Cc1nc2nc[nH]n2c(=O)c1NS(C)(=O)=O,i,0.8,29,131,-1.2,94,-1
CCOC(=O)c1c(CC(C)C)csc1NC(=O)CCl,.,.,-9,132,-2.0,98,-7
COc1ccc(F)c(-c2nc(CN3CCC(c4ccccc4)CC3)c(C)o2)c1,i,0.88,.,.,.,100,2
COc1ccc(/C=N/NC(=O)c2ccc(O)cc2)cc1CN1CCCc2ccccc21,i,1.2,.,.,-0.8,105,-12
CC(C)n1c(NCc2cccs2)nc2ccccc21,i,0.97,.,.,-0.9,101,-13
CCC(=O)N1CCN(c2ccc(Cl)cc2NC(=O)c2cccc([N+](=O)[O-])c2)CC1,i,0.93,.,.,.,101,-9
COc1ccc(N2CCN(c3nc4ccccn4c(=O)c3C=O)CC2)cc1,i,0.98,7,116,0.1,97,-5
COc1ccc(N2CCN(C(=O)c3ccc4nc(N5CCCCC5)sc4c3)CC2)cc1,i,1.1,.,.,-2.3,99,4
Cc1cc(C)nc(N(C#N)S(=O)(=O)c2ccc(Br)cc2)n1,.,.,-13,107,-0.3,101,-8
O=C(Nc1nc(-c2cccs2)cs1)c1cccc(S(=O)(=O)N2CCCCCC2)c1,?,.,.,.,-1.9,102,-11
COc1ccc(Br)c(C(=O)Nn2c(C)nc3ccccc3c2=O)c1,i,1,.,.,-1.0,102,2
O=C1c2ccccc2C(Nc2ccccc2)N1c1cccnc1 (configuration not stated),i,1,.,.,-1.6,98,-5
COCCCN1CC23C=CC(O2)C(C(=O)O)C3C1=O (configuration not stated),i,1,.,.,1.1,109,-12
CCCn1cnc2c(cnn2-c2ccc(F)cc2)c1=O,i,0.92,0,92,-1.6,104,-5
Cc1cc(OCC(=O)NCc2ccncc2)ccc1Cl,i,1.1,-33,106,.,107,0
O=S(=O)(c1ccc(Cl)c(NC(=S)N/N=C/c2c(F)cccc2F)c1)N1CCOCC1,i,1,.,.,0.4,101,3
NNC(=O)c1cncc(Br)c1,i,0.93,.,.,.,99,.
COc1ccc(C2C=C(c3ccc(Cl)cc3)Nc3nc(NC(C)=O)nn32)cc1 (configuration not stated),.,.,29,73,-2.3,108,-3
O=C(O)c1ccc(N2C(=O)/C(=C\c3ccccc3)N=C2c2ccccc2)cc1,i,0.99,.,.,.,97,.
CC1CN(c2nc(-c3ccc(Br)cc3)nnc2-c2ccccc2)CC(C)N1 (configuration not stated),.,.,2,102,-0.5,108,-7
CN(C)c1ccc(/C=N\NC(=S)SCN2C(=O)C3CCC(C)(C2=O)C3(C)C)cc1 (configuration not stated),i,1.1,5,170,-0.4,89,6
Cc1ccccc1C(=O)Nc1ccc(O)c2c(=O)cc(-c3ccccc3Cl)oc12,i,1,.,.,.,104,.

# (further entries)
SMILES,HSV augment,HSV augment primary fold,INS promoter inh,INS promoter inh cell count,GALR2 ag,RGS16-Gao,PKD1 kinase inh
CC(=O)OC1C2CCC1C([N+]1(C)CCCCC1)CC2 (configuration not stated),i,1.1,16,121,.,97,0
Cc1nnc(C)n1/N=C/c1ccc(C(C)C)cc1,i,0.87,-50,97,-1.7,104,-10
Cc1ccc(NC(=O)CN2C(=O)/C(=C3\SC(=S)N(C4CCS(=O)(=O)C4)C3=O)c3ccccc32)cc1 (configuration not stated),i,1.1,.,.,-1.0,100,-7
CCCCOC(=O)CCc1c(C)n[nH]c1C,i,0.93,.,.,.,99,.
COc1ccc2c(c1)CCc1c(C(=O)N(C)c3ccccc3)noc1-2,i,1,.,.,.,100,-8
Cc1ccc(NC2=CC(=O)CCC2)cc1C,i,1,-19,120,2.3,108,2
Cc1ccc(C2(C)NC(=O)N(CC(=O)c3ccc(Cl)s3)C2=O)cc1 (configuration not stated),i,1,-3,96,-1.3,104,4
COc1ccccc1NC(=O)CC1C(=O)Nc2c1c(=O)n(C)c(=O)n2C (configuration not stated),i,0.94,.,.,-1.7,97,-9
COc1ccc(CCNC(=O)c2ccc(CS(=O)(=O)c3ccc(Br)cc3)o2)cc1OC,i,0.99,-45,55,.,107,-6

# Sorted by count of non-hydrogen atoms (low to high): some entries from above
SMILES,HSV augment,HSV augment primary fold,INS promoter inh,INS promoter inh cell count,GALR2 ag,RGS16-Gao,PKD1 kinase inh
CCCCOC(=O)CCc1c(C)n[nH]c1C,i,0.93,.,.,.,99,.
Cc1nnc(C)n1/N=C/c1ccc(C(C)C)cc1,i,0.87,-50,97,-1.7,104,-10
CC(=O)OC1C2CCC1C([N+]1(C)CCCCC1)CC2 (configuration not stated),i,1.1,16,121,.,97,0
Cc1ccc(C2(C)NC(=O)N(CC(=O)c3ccc(Cl)s3)C2=O)cc1 (configuration not stated),i,1,-3,96,-1.3,104,4
COc1ccc2c(c1)CCc1c(C(=O)N(C)c3ccccc3)noc1-2,i,1,.,.,.,100,-8
COc1ccccc1NC(=O)CC1C(=O)Nc2c1c(=O)n(C)c(=O)n2C (configuration not stated),i,0.94,.,.,-1.7,97,-9
CC1CN(c2nc(-c3ccc(Br)cc3)nnc2-c2ccccc2)CC(C)N1 (configuration not stated),.,.,2,102,-0.5,108,-7
O=C(O)c1ccc(N2C(=O)/C(=C\c3ccccc3)N=C2c2ccccc2)cc1,i,0.99,.,.,.,97,.
CN(C)c1ccc(/C=N\NC(=S)SCN2C(=O)C3CCC(C)(C2=O)C3(C)C)cc1 (configuration not stated),i,1.1,5,170,-0.4,89,6
COc1ccc(CCNC(=O)c2ccc(CS(=O)(=O)c3ccc(Br)cc3)o2)cc1OC,i,0.99,-45,55,.,107,-6
Cc1ccc(NC(=O)CN2C(=O)/C(=C3\SC(=S)N(C4CCS(=O)(=O)C4)C3=O)c3ccccc32)cc1 (configuration not stated),i,1.1,.,.,-1.0,100,-7
